Bioassay records from PubChem.
Hedgehog – Hh protein inhibition, biochemical readout – plate reader, single concentration, primary screen (AID 588832) | Biochemical plate reader assay, Hedgehog inhibition; active compounds read high | inhibition, % at 30.3 µM | 8,000 tested, under 10 active; in the data active means inhibition from about 57%;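 further: 0% = neutral control wells and 100% = positive control wells; cholesterol-driven self-cleavage of fly hedgehog protein by fluorescence polarization; read one hour after cholesterol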
Active calls of the source: *.

Hedgehog,mol
5,COCCNC(=O)c1cc(-c2ccc(Cl)c(Cl)c2)on1
-4,COc1ccc(NC(=O)c2cc(S(=O)(=O)N3CCc4ccccc43)cn2C)cc1
5,COC(=O)c1c(NC(=O)CN2C(=O)c3ccccc3C2=O)sc(Cc2ccc3c(c2)OCO3)c1C
9,Cc1cccc(OCC(=O)N(Cc2ccco2)C2CCS(=O)(=O)C2)c1C (stereo unspecified)
5,C=C1C(=O)OC2C1CCC(C)=C1C(=O)C3OC3(C)C12 (stereo unspecified)
0,O=C(CN1CCN(c2ccccc2F)CC1)c1ccc2cc[nH]c2c1
3,Cn1c(=O)c2c(nc(CN3CCCCC3)n2Cc2c(F)cccc2Cl)n(C)c1=O
10,COc1ccc(C(=O)N2CCN(c3nc4ccccc4o3)CC2)cc1OC
4,CCOC(=O)CSc1nc2c(c(=O)n1-c1ccc(OC)cc1)SCC2
15,COc1ccc(N2CCN(C(=O)c3ccc4nc(N5CCCCC5)sc4c3)CC2)cc1
3,O=C1c2ccccc2C(Nc2ccccc2)N1c1cccnc1 (stereo unspecified)
5,Cn1cc(S(=O)(=O)N2CCN(c3cccc(C(F)(F)F)c3)CC2)c(=O)n(C)c1=O
4,COc1ccc(C2=NS(=O)(=O)N(C)C(C(=O)Nc3ccc(F)cc3F)=C2)cc1
15,O=S(=O)(Nc1ccc(-c2nc3cccnc3s2)cc1)c1cccs1
24,CCCCNc1cc(=O)n(C)c(=O)[nH]1
6,COc1ccc(C2N3CC4(C)CN2CC(C)(C3)C4O)cc1 (stereo unspecified)
0,COCCCN1CC23C=CC(O2)C(C(=O)O)C3C1=O (stereo unspecified)
10,CCOc1ccc(N2C(=O)c3ccccc3C2O)cc1 (stereo unspecified)
9,CCCc1cc(=O)oc2cc(OCC(=O)NC(Cc3c[nH]c4ccc(O)cc34)C(=O)O)c(Cl)cc12 (stereo unspecified)
10,CC1(C)C2CC[C@]3(C)C(CC=C4[C@@H]5C[C@@](C)(CO)[C@@H](O)C[C@]5(C(=O)O)CC[C@]43C)[C@@]2(C)CC[C@@H]1O (stereo partly specified)
2,CCC(Sc1nc(N)c(NC(=O)c2ccc(OC)c(OC)c2)c(=O)[nH]1)C(=O)OC (stereo unspecified)
20,CCN(Cc1ccccc1)C(=O)c1cc2c(=O)oc3ccc(C)cc3c2s1
9,CCCCc1cc(=O)oc2cc(C)cc(OCC(=O)NCC3CCC(C(=O)O)CC3)c12 (stereo unspecified)
7,Cn1cnc2nc[nH]c2c1=O
4,C=C(C)Cn1c(N2CCN(CC)CC2)nc2c1c(=O)[nH]c(=O)n2C
7,O=c1cc(-c2ccc(O)cc2)oc2ccccc12
17,COc1ccccc1NC(=O)Cn1c(=O)n2nc(C)nc2c2ccccc21
17,CC1CCCN(S(=O)(=O)c2coc(C(N)=O)c2)C1 (stereo unspecified)
2,COc1ccc(-c2nc(C(=O)NCCCN3CCOCC3)cc3c2[nH]c2ccccc23)cc1OC
1,COc1ccc(-c2nc3cnccn3c2Nc2ccc3c(c2)OCO3)cc1
0,Cn1c(SCC(=O)N2CCN(c3ccccc3)CC2)nnc1-c1c[nH]c2ccccc12
5,CC1=C(C(=O)NCCCOC(C)C)C2(CCC(C)CC2)OC1=O (stereo unspecified)
3,CCCCCn1c(C(Cc2ccccc2)NC(=O)COC)nc2ccccc21 (stereo unspecified)
8,Cn1cccc1Cc1nnc(SCC(=O)N2CCc3ccccc32)n1-c1ccc(F)cc1
5,Cc1c(C(=O)OCC(C)C)[nH]c2c1C(=O)CC(c1ccco1)C2 (stereo unspecified)
5,Cc1nnc(NC(=O)C(C)Sc2nncn2C)s1 (stereo unspecified)
7,COc1ccc(-c2cc(=O)oc3cc(OC(C)C(=O)NC4CC4)ccc23)cc1 (stereo unspecified)
11,CSc1cccc(NC(=O)c2cc(S(=O)(=O)N3CCc4ccccc43)cn2C)c1
6,CCCCCn1c(CNC(=O)CC)nc2ccccc21
-2,Cc1nc2sc(C(c3cccs3)N3CCN(Cc4ccccc4)CC3)c(O)n2n1 (stereo unspecified)
7,Cc1cc(NC(=O)c2cc(C3CC3)on2)n(-c2ccccc2)n1
4,CCCc1cc(C(=O)NCc2ccc(OC)cc2)no1
2,OC/C(Br)=C(\Br)CO
0,Cn1cc(S(=O)(=O)N2CCN(C(=O)c3ccco3)CC2)c(=O)n(C)c1=O
5,CCc1ccccc1N1CSC2=C(C#N)C(c3ccccc3F)CC(=O)N2C1 (stereo unspecified)
19,CCCc1cc(C(=O)Nc2sc(C(C)=O)c(C)c2C(=O)OCC)no1
21,COc1ccc2c(c1)C(SCC(=O)NCCc1ccc(Cl)cc1)CC(C)(C)O2 (stereo unspecified)
9,O=C(/C=C/C=C/c1ccc2c(c1)OCO2)N1CCCCC1
7,CN1CCN(C(=O)c2ccc(CSc3nc4ccncc4n3Cc3ccc(F)cc3)cc2)CC1
8,Cc1c(Cc2ccccc2)c(=O)oc2cc(OCC(=O)N3CCC(C(=O)O)CC3)ccc12
6,Cc1cccc(NS(=O)(=O)c2cn(C)c(=O)n(C)c2=O)c1C
17,CCc1ccccc1NS(=O)(=O)c1cc2c(cc1C)n(C)c(=O)c(=O)n2C
5,COc1ccc(-c2[nH]c(-c3ccc(Cl)cc3)nc2SCC(=O)Nc2nccs2)cc1
7,CCOC(=O)C(C)n1cnc2c(nnn2-c2ccccc2)c1=O (stereo unspecified)
7,NC(=O)CC(NC(=O)c1ccccc1)C(=O)O (stereo unspecified)
3,COc1ccc(CCOC2OC(CO)C(OC(=O)/C=C/c3ccc(O)c(OC)c3)C(O[C@H]3O[C@@H](C)[C@H](O)[C@@H](O)[C@H]3O)C2O)cc1O (stereo partly specified)

Continuation:
Hedgehog,mol
5,COC(=O)C1=COC(OC2OC(CO)C(O)C(O)C2O)C2C1C=CC2(O)CO (stereo unspecified)
7,CCc1ccc(CNC(=O)c2cc3c(C)nc4ccccc4c3o2)cc1
10,CC(=O)c1c(C)[nH]c(C(=O)N2CCN(c3ncccn3)CC2)c1C
3,Cc1cc(=O)oc2c(C)c(OCC(=O)N3CC[C@@]4(O)CCCC[C@H]4C3)ccc12
0,CCN1CCSc2ccc(C(=O)NCc3ccc(OC(C)C)cc3)cc21
12,O=C(Nc1ccc(Br)cc1F)c1ccc2c(c1)N(Cc1ccccc1)C(=O)CS2=O (stereo unspecified)
24,Cc1ccc(C)c(N2CCN(CCCNC(=O)Cn3cc4c(n3)CCCCC4)CC2)c1
-2,c1ccc(Nc2cccc3ccccc23)cc1
3,CCN1C(=O)c2ccccc2S(=O)c2ccc(C(=O)N3CCCCCC3)cc21 (stereo unspecified)
5,CCOC(=O)N1CCC(N2C(=O)c3ccccc3C2Nc2cc(OC)c(OC)c(OC)c2)CC1 (stereo unspecified)
11,CCOC(=O)N1CCN(C(=O)CSc2nnc(Cn3c(=O)sc4ccccc43)n2C)CC1
15,COc1ccccc1N1CCN(C(=O)c2ccc(NC3=NC4CS(=O)(=O)CC4S3)cc2)CC1 (stereo unspecified)
10,COC(=O)c1cc(NC2c3ccccc3C(=O)N2CCN2CCOCC2)cc(C(=O)OC)c1 (stereo unspecified)
7,Cc1cc2cc(CNS(=O)(=O)c3ccc4ccccc4c3)ccc2n1C
5,COc1ccc2c(c1)c(=O)oc1cc(O)ccc12
1,S=C(NCc1ccc2[nH]c3c(c2c1)CCCC3)Nc1ccccc1
11,COc1ccc(C2C(C(=O)Nc3ccccc3OC)=C(C)Nc3ncnn32)cc1 (stereo unspecified)
6,CCc1ccc(C2CC(c3cccc(OC)c3)n3nc(N)nc3N2)cc1 (stereo unspecified)
3,COc1ccc(N(CC(=O)N2CCC(C)CC2)S(=O)(=O)c2c(C)nn(C)c2C)cc1
9,Cc1ccc(N)cc1O
6,CSc1nc2c(c(=O)n1C)SC(C)C2 (stereo unspecified)
3,CC1CN(C(=O)CCC(=O)NCCCN2C(C)CCCC2C)c2ccccc2O1 (stereo unspecified)
7,O=c1[nH]c2ccccc2c(O)c1-c1ccccc1
5,COc1ccc2c(=O)c3ccccc3oc2c1
8,CCC1CCCCN1C(=O)COc1cc(=O)n(C)c2ccccc12 (stereo unspecified)
4,COc1ccccc1NC(=O)Cn1ncc2c1-c1ccccc1OC2
9,CCC(=O)N1c2ccc(S(=O)(=O)CCC(=O)N3CCN(c4ccccc4F)CC3)cc2CC1C (stereo unspecified)
11,CCOc1ccc(CCNC(=O)C2CCCN(S(=O)(=O)N3CCOCC3)C2)cc1OCC (stereo unspecified)
5,Cc1ccc(Cn2cc(C(=O)c3ccc(F)cc3)c(=O)c3cc4c(cc32)OCCO4)cc1
5,COc1cccc(NC(=O)CN2C(=O)CSc3nc(C)cc(C)c32)c1
9,CCOc1ccccc1NC(=O)c1cccc(NC2=NC3CS(=O)(=O)CC3S2)c1 (stereo unspecified)
7,Nc1cc2nc3ccccc3oc-2cc1=O
7,CCCc1cc(C(=O)Nc2cccc(C(C)=O)c2)no1
-7,CCOC(=O)Cn1c(CCC(=O)O)ccc1-c1ccc(F)cc1
8,CCOC(=O)CSc1nnc(Cc2cc(=O)[nH]c(=O)[nH]2)n1-c1ccc(Cl)cc1
12,c1ccc(-c2nnc(CN3CCN(c4ccccc4)CC3)o2)cc1
7,Cc1cccc(NC(=O)c2cc(S(=O)(=O)N3CCc4ccccc43)cn2C)c1C
17,COCCNC(=O)c1ccc(CS(=O)(=O)c2ccc(OC)cc2)o1
10,COc1ccc(C(c2sc3nc(C)nn3c2O)N2CCC(C(N)=O)CC2)cc1OC (stereo unspecified)
15,COc1ccc(Cl)cc1N1C(=O)C2CCCN2C1c1ccc(F)c(F)c1 (stereo unspecified)
9,O=[N+]([O-])c1cc(Cl)c(Cl)c(Cl)c1Cl
25,Cc1ccc(S(=O)(=O)N2CCC(C(=O)N3CCN(Cc4ccccc4)CC3)CC2)cc1
4,CN1C(=O)C(C)(C)c2cc(S(=O)(=O)N3CCN(c4cccc(Cl)c4)CC3)ccc21
5,CCCc1cc(C(=O)NCCc2ccccc2)no1
1,COc1ccc(C(=O)NCc2nnc(SCC(=O)Nc3nnc(C)s3)o2)cc1OC
7,CCCCc1cc(=O)oc2cc(OCC(=O)NCC3CCC(C(=O)O)CC3)ccc12 (stereo unspecified)
-4,COc1ccc(-c2c(C)nn3c(-c4ccccc4)cc(C)nc23)cc1
4,COc1ccc(S(=O)(=O)Cc2ccc(C(=O)NCc3ccccn3)o2)cc1
20,CN1C(=O)C(C)(C)c2cc(S(=O)(=O)N3CCCC3C(=O)NCc3ccccc3Cl)ccc21 (stereo unspecified)
12,CCOC(=O)CNC(=O)CSc1nnc(Cn2c(=O)sc3ccccc32)n1C
5,O=C(NCc1ccc(Cl)cc1)c1cccc(NC2=NC3CS(=O)(=O)CC3S2)c1 (stereo unspecified)
4,O=C(CCS(=O)(=O)c1ccccc1)Nc1nccs1
4,COc1ccc(S(=O)(=O)Cc2ccc(C(=O)NCc3cccnc3)o2)cc1
5,Cc1cc(NC(=O)CSc2nc(C(C)C)nc3c2c(=O)n(C)c(=O)n3C)no1
8,Nc1nc2n(n1)C(c1ccc(Cl)cc1)CC(c1ccc(F)cc1)N2 (stereo unspecified)
3,COc1ccccc1CNC(=O)[C@H](C)NC(=O)C1CCN(C(=O)[C@@H](N)CCSC)CC1

Additional compounds.
Hedgehog,mol
7,O=C(O)C(=O)Cc1c[nH]c2ccccc12
-2,Cc1c(OCC(=O)N2CCC(C(N)=O)CC2)ccc2c1oc(=O)c1ccccc12
9,O=C(NCCN1CCOCC1)c1ccccc1N1C(=O)[C@@H]2Cc3c([nH]c4ccccc34)C(c3ccccc3)N2C1=O (stereo partly specified)
4,COc1ccc(-c2[nH]c(-c3cccc(OC)c3)nc2SCC(=O)NC2CCCC2)cc1
7,Clc1ccc(-c2nc3cnccn3c2Nc2ccc3c(c2)OCO3)cc1
5,Oc1c(C(c2cccs2)N2CCOCC2)sc2ncnn12 (stereo unspecified)
5,Cc1c(C)c2c(OCC(=O)N3CCC(C(=O)O)CC3)cc3c(c2oc1=O)CCC(C)(C)O3
8,CC(C)COC(=O)C1C2C=CC3(CN(C4CCCC4)C(=O)C13)O2 (stereo unspecified)
11,CC(C)Oc1ccc(N2CC(C(=O)Nc3ccc4c(c3)OCO4)CC2=O)cc1 (stereo unspecified)

Entries from the list above that have an NH in an aromatic ring (17):
Hedgehog,mol
0,O=C(CN1CCN(c2ccccc2F)CC1)c1ccc2cc[nH]c2c1
24,CCCCNc1cc(=O)n(C)c(=O)[nH]1
9,CCCc1cc(=O)oc2cc(OCC(=O)NC(Cc3c[nH]c4ccc(O)cc34)C(=O)O)c(Cl)cc12 (stereo unspecified)
2,CCC(Sc1nc(N)c(NC(=O)c2ccc(OC)c(OC)c2)c(=O)[nH]1)C(=O)OC (stereo unspecified)
7,Cn1cnc2nc[nH]c2c1=O
4,C=C(C)Cn1c(N2CCN(CC)CC2)nc2c1c(=O)[nH]c(=O)n2C
2,COc1ccc(-c2nc(C(=O)NCCCN3CCOCC3)cc3c2[nH]c2ccccc23)cc1OC
0,Cn1c(SCC(=O)N2CCN(c3ccccc3)CC2)nnc1-c1c[nH]c2ccccc12
5,Cc1c(C(=O)OCC(C)C)[nH]c2c1C(=O)CC(c1ccco1)C2 (stereo unspecified)
5,COc1ccc(-c2[nH]c(-c3ccc(Cl)cc3)nc2SCC(=O)Nc2nccs2)cc1
10,CC(=O)c1c(C)[nH]c(C(=O)N2CCN(c3ncccn3)CC2)c1C
1,S=C(NCc1ccc2[nH]c3c(c2c1)CCCC3)Nc1ccccc1
7,O=c1[nH]c2ccccc2c(O)c1-c1ccccc1
8,CCOC(=O)CSc1nnc(Cc2cc(=O)[nH]c(=O)[nH]2)n1-c1ccc(Cl)cc1
7,O=C(O)C(=O)Cc1c[nH]c2ccccc12
9,O=C(NCCN1CCOCC1)c1ccccc1N1C(=O)[C@@H]2Cc3c([nH]c4ccccc34)C(c3ccccc3)N2C1=O (stereo partly specified)
4,COc1ccc(-c2[nH]c(-c3cccc(OC)c3)nc2SCC(=O)NC2CCCC2)cc1

An excerpt; count on the stated rates, not on these rows.
